Bioassay records as filed in PubChem BioAssay.
HSD17B inhib – blocks hydroxysteroid 17-beta dehydrogenase activity; AID 893; hit rate 7.6% among 75,000; recombinant HSD17B10, NADH fluorescence kinetic; many of its hits are not listed in these tables; Potency, µM (doses to about 57.1 µM), for the others: top-dose activity change, negative = inhibition, hits mostly inhibitors; active = well fitted inhibition curve with a large enough effect; inconclusive = small, poorly fitted or top-dose-only effect; inactive = no such curve, though single readings can be large or run the other way;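 also: the protocol describes HADH2 (HSD17B10) and not the HSD17B4 of the title; nearly all actives have a fitted effect of over 70% in size; most hits overshoot -100% by far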
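Activity followed as NADH fluorescence increase (ex 360, em 450 nm) every 30 seconds for 4 min, using final 90 uM beta-hydroxybutyryl CoA and 1 mM NAD+. Recombinant His-tagged enzyme, 20 nM, pH 9.0 Tris buffer, 15 min compound preincubation.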
Starred values were filed as active, the others as inactive; ? = inconclusive; & = joins results of further samples; [ ] = another dose, or the depositor's remark. % is scaled to controls: 0 for no effect and ±100 for the full control effect; potency is read from the fitted curve at half-maximal effect.

SMILES	HSD17B inhib
Cc1ccc2nc(CSc3nnc(-c4ccco4)n3-c3ccccc3)cc(=O)n2c1	-23.8%
O=C(OCc1cccs1)c1ccccc1NS(=O)(=O)c1ccc2c(c1)OCCO2	31.6µM*
COC(=O)c1ccc(NC(=O)C23CCC(C)(C(=O)O2)C3(C)C)cc1 (stereo not drawn)	-3.0%
COc1ccc(OC)c(-c2nc(C)sc2CC(=O)O)c1	7.4%
CCNS(=O)(=O)c1ccc(NS(=O)(=O)c2cc(C)ccc2C)cc1	-13.7%
CCc1nc(SCC(=O)N2CCCC2)c2ccccc2n1	-8.3%
CCOC(=O)c1snc(-c2ccc(F)cc2)c1N	-10.8%
CN1CCCC(OC(=O)c2ccc3c(c2)OCCO3)C1 (stereo not drawn)	-3.0%
CC(=O)Nc1ccc(C2NC(=O)c3ccccc3O2)cc1 (stereo not drawn)	?
CC(C)Sc1nc(N)c2c3c(sc2n1)CN(C)CC3	-8.3%
Cc1ccc(C(=O)C2CCNCC2)cc1	3.2%
O=C(CCCN1C(=O)c2ccccc2C1=O)Nc1nncs1	-2.0%
COc1ccc(C)cc1-n1nnnc1SCc1nc2ccccc2s1	-2.4%
O=C1c2oc3ccccc3c(=O)c2C(c2cccs2)N1CCCN1CCOCC1 (stereo not drawn)	-7.0%
CCCOc1ccc(N2C(=O)CC(N3CCC(c4nncn4CC)CC3)C2=O)cc1 (stereo not drawn)	-10.9%
CCCn1cc(C(CC(=O)O)C(=O)O)c2ccccc21 (stereo not drawn)	?
Cc1ccnc2nc(C(=O)NC3=NCCS3)nn12	-1.4%
CCN1CCN(C(=O)c2cc3c(=O)n4ccccc4nc3n2Cc2ccccc2)CC1	-13.5%
C=CCN1C(=NC(=O)CCCC(=O)O)SC2CS(=O)(=O)CC21 (stereo not drawn)	12.6%
O=c1[nH]c2ccc(S(=O)(=O)Nc3ccc(-c4nnc5n4CCCCC5)cc3)cc2o1	0.9%
COc1ccc(S(=O)(=O)N2CCN(c3cccc(C)c3C)CC2)cc1	7.1%
CCOc1ccc(C(=O)OCC(=O)NCc2ccco2)cc1OCC	-17.8%
O=C(Nc1ccc2c(c1)ncn2-c1ccccc1)c1ccco1	?
O=C(NNS(=O)(=O)c1ccccc1)c1cccnc1	7.4%[11.4 µM]
O=C(NC1CCS(=O)(=O)C1)OC1CCCCC1 (stereo not drawn)	-0.2%
CC1CCCC(C(=O)O)N1C(=O)CCSC(=O)c1ccccc1 (stereo not drawn)	-0.8%
Cc1ccc(/C(O)=C2\C(=O)C(=O)N(CCCN(C)C)C2c2ccccn2)cc1 (stereo not drawn)	7.6%
COc1ccccc1C1/C(=C(/O)c2ccc(C)cc2)C(=O)C(=O)N1CC(C)O (stereo not drawn)	7.5%
Cc1nc2cc(-c3cccc(F)c3)nn2c(C)c1CCC(=O)N1CCN(c2ccccn2)CC1	-9.4%
CC(=O)NC1CCC(C(=O)O)(c2ccccc2)C1 (stereo not drawn)	2.8%

Brought forward from above: 2 compounds, then new ones.
SMILES	HSD17B inhib
Cc1nc2cc(-c3cccc(F)c3)nn2c(C)c1CCC(=O)N1CCN(c2ccccn2)CC1	-9.4%
CC(=O)NC1CCC(C(=O)O)(c2ccccc2)C1 (stereo not drawn)	2.8%
O=c1oc(-c2ccco2)nc2c1cnn2-c1ccccc1	?
COc1cccc(-c2ccc3ncnc(NCc4cccs4)c3c2)c1	?
CC(O)c1nc2ccc(Cc3ccc4nc(C(C)O)[nH]c4c3)cc2[nH]1 (stereo not drawn)	-4.2%
Cc1cc(NC(=O)COC(=O)COc2ccc3c(c2)CCC3)no1	8.9%
COC(=O)C(CCSC)NC(=O)C(NC(=O)C1CCC(C)CC1)C(C)C (stereo not drawn)	-6.1%
CC(C)OCC(O)CN1CCN(CC(O)COc2ccc3c(c2)OCO3)CC1 (stereo not drawn)	1.9%
O=C(CSc1nc(N2CCCCC2)nc(N2CCCCC2)n1)N1CCc2ccccc21	-15.4%
Cc1nnc(SCC(=O)NC2CC2)n1CCc1ccccc1	0.7%
CCCNC(=O)c1ccc2c(c1)ncn2-c1ccccc1OC	-11.3%
O=C(Cn1nc(-c2ccccc2)c2ccccc2c1=O)NCC1CCCO1 (stereo not drawn)	1.2%
CCn1cc(C(=O)NC2CCc3ccccc32)c(=O)c2ccc(C)nc21 (stereo not drawn)	4.1%
CCOC(=O)c1cnc(SCc2nc(N)nc(Nc3ccc(C)cc3)n2)nc1N	34.5%[activator]
Cc1cc(Nc2ccc(F)cc2Cl)n2ncnc2n1	8.0%
CCOC(=O)c1cc2sccc2n1CC(=O)N1CCc2ccccc21	-1.0%
CCc1nnc(NC(=O)CSc2nnc(-c3ccoc3C)n2-c2ccccc2)s1	-17.4%
CCOC(=O)N1CCN(C(=O)c2ccc3nc(SCc4ccc(F)cc4)n(C)c3c2)CC1	0.6%
CC(=O)N1CCN(c2ccc(NCc3ccc(C)cc3)cc2)CC1	5.3%
Nc1nnc(SCc2ccc3c(c2)OCO3)s1	1.7%
Cc1ccc(C)c(Cn2cnc3c(cnn3C(C)(C)C)c2=O)c1	-8.1%
CCOc1ccc(NC(=O)c2oc3ccccc3c2NC(=O)CC)cc1	?
CCCc1cc(=O)n2[nH]c(SCc3ccccc3)nc2n1	10.4%
Cc1cc(C(=O)COC(=O)c2cccs2)c(C)n1-c1c(C)n(C)n(-c2ccccc2)c1=O	6.4%
COc1ccc2oc(=O)c(C(=O)N3CCN(C45CC6CC(CC(C6)C4)C5)CC3)cc2c1	-13.2%
O=C(O)C12CC3CC(C1)CC(n1cnc(Cl)n1)(C3)C2	-2.3%
OC(COc1ccc2c(c1)OCO2)CN1CCc2ccccc2C1 (stereo not drawn)	-2.9%
CN(Cc1ccccc1)C(=O)c1ccccc1NC(=O)c1ccco1	9.8%
CC(C)(Oc1ccc(Cl)cc1)C(=O)OCC(=O)N1CCCC1	2.8%
Cc1ccc(-c2nnn(CC(=O)N(Cc3cccs3)C(C(=O)NC(C)(C)C)c3ccco3)n2)o1 (stereo not drawn)	-9.6%
O=C(c1ccccc1CCc1ccccc1)N1CCOCC1	-0.1%
CN1/C(=C\C(=O)COC(=O)C2COc3ccccc3O2)C(C)(C)c2ccccc21 (stereo not drawn)	?
Cc1cccc(NC(=O)CCNS(=O)(=O)c2cccc3nsnc23)c1	1.8%
Cc1cc(C)c(NC(=O)CCCOC(=O)C2=COCCO2)c(C)c1	3.5%
O=S(=O)(c1cccc(F)c1)N1CCN(Cc2ccc3c(c2)OCO3)CC1	-1.9%
CCCC(=O)Nc1cc2c(cc1C(=O)c1ccccc1)OCCO2	-8.1%
CCSc1nc2ccccc2n1Cc1nc(N)nc(N(C)C)n1	-0.9%
CC(C)=O	4.3%
CCn1c(CCNC(=O)c2cccs2)nnc1SCC(=O)NC1CCCCC1	-3.4%
Cc1cc(C)n2nc[n+](C)c2n1	2.8%
CCC(CCC(=O)Nc1ccn(-c2ccccc2)n1)C(=O)O (stereo not drawn)	2.9%
Cc1cc(C(=O)NCCC2=CCCCC2)no1	7.3%
Cc1cc(C)nc(SCc2nnc(SCC(=O)N3CCCc4ccccc43)n2C)n1	12.4%
COc1ccc2[nH]cc(CCNc3cc(-c4cccnc4)ncn3)c2c1	-1.9%
CC1(C)CC(N2CCN(c3ccccc3)CC2)=CC(=[N+]2CCCC2)C1	-7.7%
CS(=O)(=O)Cc1nc2ccccc2oc1=O	-0.4%
COC(=O)CSc1nnc([C@H](Cc2ccccc2)NC(=O)OC(C)(C)C)o1	6.6%
O=S(=O)(/N=C/c1ccccc1O)c1cccs1	0.6%
COc1ccc(NC(=O)C2CCCN(c3c4c(nc5ncnn35)CCC4)C2)cc1OC (stereo not drawn)	-9.3%
COc1ccc(S(=O)(=O)NCc2ccco2)cc1-c1nnc2c3ccccc3c(C)nn12	-12.0%
CCc1c(C#N)c(N)nc(SCC(=O)OCc2ccccc2)c1C#N	-15.4%
Cc1ccc(NC(=O)N(C2=NCC(C)S2)c2ccccc2)cc1 (stereo not drawn)	-3.9%

Given with each value named: part of the list above.
COc1ccc(OC)c(-c2nc(C)sc2CC(=O)O)c1
  HSD17B inhib: 7.4%

CCNS(=O)(=O)c1ccc(NS(=O)(=O)c2cc(C)ccc2C)cc1
  HSD17B inhib: -13.7%

CCc1nc(SCC(=O)N2CCCC2)c2ccccc2n1
  HSD17B inhib: -8.3%

Returning to the listing with the three entries that preceded the break.
SMILES	HSD17B inhib
COc1ccc(S(=O)(=O)NCc2ccco2)cc1-c1nnc2c3ccccc3c(C)nn12	-12.0%
CCc1c(C#N)c(N)nc(SCC(=O)OCc2ccccc2)c1C#N	-15.4%
Cc1ccc(NC(=O)N(C2=NCC(C)S2)c2ccccc2)cc1 (stereo not drawn)	-3.9%
Cc1cc(C)n2nc(S(=O)(=O)NCCc3ccccc3)nc2n1	10.2%
COc1ccc(S(=O)(=O)Nc2ccc3c(c2)OCCO3)cc1Cl	-3.8%
O=C(CCS(=O)NCc1ccccc1)NCc1ccccc1 (stereo not drawn)	-1.4%
Cc1ccccc1NC(=O)CSc1nc(Nc2ccccc2)nc(N2CCOCC2)n1	-20.1%
Cc1ccc(-c2nc(CS(=O)(=O)CC(=O)NC3CCCCC3C)c(C)o2)cc1 (stereo not drawn)	?
CC(=O)OCCCCON1C(=O)c2ccccc2C1=O	-3.4%
O=C(O)C1CCCNC1 (stereo not drawn)	-0.5%
CC(=O)C1=C(O)C(=O)N(Cc2ccco2)C1c1ccc(F)cc1 (stereo not drawn)	-11.9%
Cn1c(=O)c2ncn(CC(=O)Nc3ccc4c5c(cccc35)CC4)c2n(C)c1=O	-6.5%
COC(=O)C1=C(CN2CCCc3ccccc32)NC(=O)NC1c1ccc(F)cc1 (stereo not drawn)	-6.6%
Cc1nc(SCC(=O)Nc2c(C)n(C)n(-c3ccccc3)c2=O)n[nH]1	-2.4%
CCOc1ccc(-c2cc(CCCC(=O)NCCc3ccc(OC)c(OC)c3OC)no2)cc1	7.9%
O=C(Nc1cnc2ccccc2c1)N1CCCCC1	-9.2%
Cc1cc2n(n1)SC(Nc1ccccc1)N2 (stereo not drawn)	-3.1%
N#CC1=C(N)SC(N)=C(C#N)C1CCc1ccccc1	?
c1ccc2c(c1)Cn1c-2nc2ccccc21	25.1µM*
C=C(C)Cn1c(SCC(=O)O)nc2c1c(=O)[nH]c(=O)n2C	0.6%
CCCCCOC(=O)C1=C(C)Nc2nnnn2C1c1ccc(OC)c(OC)c1OC (stereo not drawn)	3.3%
C=CCNC(=O)C1CC(=O)N(c2ccc(Br)cc2)C1 (stereo not drawn)	5.4%
Cc1ccnc(NC(=O)CCC2COc3ccccc3O2)c1 (stereo not drawn)	?
COc1ccc(/C(CC2(O)C(=O)Nc3ccccc32)=N\O)cc1 (stereo not drawn)	5.4%
O=C(O)c1ccccc1Nc1ccccc1	-7.1%&9.6%
CCCn1c(SCC(=O)c2ccc3c(c2)OCCO3)nc2c1c(=O)n(C)c(=O)n2C	10.2%
CCOC(=O)N1CCN(c2nc(-c3ccco3)cc(C(F)(F)F)n2)CC1	?
CN(C)S(=O)(=O)c1ccc(C(=O)Nc2ccccc2OC(F)(F)C(F)F)cc1	2.3%
CCC(C)NC(=O)Cn1cccc1C(=O)c1ccccc1 (stereo not drawn)	-5.8%
O=C(NC1CCCCC1)c1ccc(Br)o1	-12.8%
CN(C)Cc1ccccc1-c1nccc(N(C)Cc2ccco2)n1	2.4%
CCc1nc2ccccc2c(C(=O)OCC(=O)NCCCN2CCCC2=O)c1C	7.0%
CCCC(=O)Nc1ccc(-c2nc3cc(C)c(C)cc3o2)cc1	61.0%[activator]
CCN(CCCc1ccccc1)CCCc1ccccc1	0.6%
CCNc1nc(N)nc(Oc2ccc(OCCOc3ccc(Cl)cc3Cl)nn2)n1	-1.0%
COc1ccc(Cl)cc1NC(=O)CCN1CCN(c2ccccc2C)CC1	12.9%
O=C(Nc1cccc(C(F)(F)F)c1)C1CCCN1S(=O)(=O)c1cccc2cccnc12 (stereo not drawn)	-4.5%
CC(=O)Nc1ccccc1NC(=O)CN(C)S(=O)(=O)c1ccc(C)cc1	5.2%
O=C(c1csnn1)N1CCC2(CCCN(c3ccccn3)C2)CC1	?
COC(=O)c1ccc2c(=O)n(CCCCCC(=O)N3CCN(c4ccc(F)cc4)CC3)c(=O)[nH]c2c1	5.0%
COc1ccc(C2N(C(=O)c3ccccc3)CCN2C(=O)c2ccccc2)cc1	2.5%
COC(=O)C1C2C=CC3(CN(c4cccc(C)c4)C(=O)C13)O2 (stereo not drawn)	-11.0%
CCCNC(=O)C(NS(=O)(=O)c1cccc2nsnc12)c1ccccc1 (stereo not drawn)	-7.0%
CCOc1cc(N2CCOCC2)c(OCC)cc1NS(=O)(=O)c1ccc(Cl)s1	-26.1%
CCOC(=O)c1c(C)n(C)c2ccc(OCC(N)=O)cc12	-2.0%
CC(C)=CC(=O)Nc1ccccc1C(N)=O	6.8%
CCOc1cc(C2C(C#N)=C(N)Oc3n[nH]c(CC)c32)ccc1OCCN1CCOCC1 (stereo not drawn)	7.9%
CC(C)OC(=O)c1ccc(NC(=O)C2C3CC4OC(=O)C2C4C3)cc1 (stereo not drawn)	-23.7%
CCn1c(SCC(=O)Nc2nccs2)nnc1-c1ccccc1	9.8%
CCc1ccc(CNc2ccc3c(c2)ncn3C)cc1	25.1µM*
CCOC(=O)C1CCCN(c2c(N3CCN(c4cccc(Cl)c4)CC3)c(=O)c2=O)C1 (stereo not drawn)	0.0%
Cc1ccc(NC(=O)N2CCC(O)(c3ccc(Cl)cc3)CC2)cc1	-4.6%
CCOC(=O)c1cnc2c(Cl)c(Cl)ccc2c1N1CCN(C)CC1	-6.8%
Cc1ccc(O)c(CC(C)C)n1	25.1µM*
CCOC(=O)CSc1nc(CC)nc2ccccc12	1.7%

A portion of the library. The share of hits here may be higher or lower than overall.
